Bioassay records: PubChem BioAssay, ICCB-Longwood Screening Facility, Harvard Medical School
Vaccinia pol inh: blocks vaccinia virus processive DNA synthesis. AID 493162. in vitro processive DNA synthesis, absorbance read-out; hits give low values; some inactives read as strong as hits. normalized absorbance, % (test concentration not listed). 46,000 compounds, 0.94% hits;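 active = replicate mean up to 90% and picked by the depositor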;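 also: 100% = median of the test wells of a plate; 100 nL library stock went into each well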
Numbers without * were called inactive.

mol	Vaccinia pol inh
COC(=O)c1ccc(C(=O)OC)c(NC(=O)Cn2nc(C(F)(F)F)cc2C)c1	101
O=C(NC1CCCCNC1=O)c1csc2ccccc12 (stereo unspecified)	102
Cc1ccc(OC(=O)NC2(C(F)(F)F)OCCO2)cc1	108
CS(=O)(=O)NC1CCN(Cc2ccccc2)CC1	100
O=C1c2cccc3cccc(c23)C(=O)N1c1ccc(O)cc1	96
N#Cc1ccc(C23CC4CC(CC(C4)C2)C3)nc1SCc1ccccn1	103
O=C(O)CCC(=O)Nc1cc(Cl)ccc1Cl	99
O=C(c1cccs1)N(Cc1ccc(Br)cc1)c1ccc(F)cc1	100
Clc1ccc(SCc2cn3cccnc3n2)cc1	97
CCCCC(=O)Nc1c2c(nn1C(C)(C)C)CS(=O)C2 (stereo unspecified)	101
O=C(COC(=O)/C=C/c1ccccc1Cl)Nc1cccnc1Cl	99
CCC1CCCCN1C(=O)c1cc2ccccc2oc1=O (stereo unspecified)	100
CC(C)COc1ccc(OCC(C)C)c(N)c1	100
CCOC(=O)c1nnn2c1nc(SCc1ccc(F)cc1)c1ccccc12	109
COC(=O)C1=C(C)N(C)C(=O)/C1=C\c1ccccc1	100
COc1ccc(C2(CNC(=O)C(c3ccccc3)c3ccccc3)CCOCC2)cc1	99
CCOC(=O)c1cc(=O)c2ccc(OCC(=O)Nc3ccccc3)cc2o1	103
CCOc1ccc(-c2cn3c(n2)sc2cc(C(=O)N4CCN(C)CC4)ccc23)cc1	101
CC(C)NC(=O)c1cc(-c2ccc(O)cc2)on1	99
CNS(=O)(=O)c1ccc(C)cc1	105
CCN(S(=O)(=O)c1ccc(F)cc1)S(=O)(=O)c1c(C)c(C)c(C)c(C)c1C	113
CC(C)CNC(=O)c1ccccc1	101
Cc1cccc(C)c1NC1=NCCS1	104
O=C(NC12CC3CC(CC(C3)C1)C2)c1cccnc1	100
CCOC(=O)N1CCC(NC(=O)NCc2noc3ccccc23)CC1	98
CC(=O)OCOC(=O)CNc1ccccc1OCCOc1ccccc1NCC(=O)OCOC(C)=O	100
Brc1ccc(-n2cnnc2)cc1	94
CSc1nc(N)c(C#N)cc1C#N	95
CCn1c(SC)nnc1-c1c[nH]c2ccccc12	99
CC(C)S(=O)(=O)c1ccc(Cl)cc1	101
Fc1ccc(-n2cc(-c3ccccc3)c3c(NCCC4=CCCCC4)ncnc32)cc1	99
Cn1c(Sc2c3c(nc4ncnn24)CCC3)nnc1-c1ccccc1	102
O=C1CCc2cc(S(=O)(=O)NCCC(=O)NC3CCCCCCC3)ccc2N1	98
N#CC(CCN1CCOCC1)(c1ccccc1)c1ccccc1	98
CCCN(CCC)S(=O)(=O)c1ccc(C(=O)Nc2cc(C(F)(F)F)ccc2Cl)cc1	104
O=c1c2nnn(Cc3ccc(F)cc3)c2ncn1Cc1ccc(F)cc1	69*
CC(C)(C)NC(=O)n1ccc(-c2ccc(-n3ccnc3)cc2)n1	87
CC1CN(C)C(C)CC1n1[nH]c(=O)cc1N (stereo unspecified)	101
CC1(C)OC(=O)N(CC(=O)Nc2ccc(F)cc2)C1(C)O (stereo unspecified)	99
Cc1ccc2c(c1)C1OCCC1C(c1ccco1)N2 (stereo unspecified)	98

Random excerpt: 6 records from the list, in no set order.
mol	Vaccinia pol inh
Cn1c(Sc2c3c(nc4ncnn24)CCC3)nnc1-c1ccccc1	102
O=C1CCc2cc(S(=O)(=O)NCCC(=O)NC3CCCCCCC3)ccc2N1	98
Fc1ccc(-n2cc(-c3ccccc3)c3c(NCCC4=CCCCC4)ncnc32)cc1	99
CC(C)(C)NC(=O)n1ccc(-c2ccc(-n3ccnc3)cc2)n1	87
Cc1ccc2c(c1)C1OCCC1C(c1ccco1)N2 (stereo unspecified)	98
CCCN(CCC)S(=O)(=O)c1ccc(C(=O)Nc2cc(C(F)(F)F)ccc2Cl)cc1	104

Following part:
mol	Vaccinia pol inh
Nc1ccccc1Sc1ncc(C(F)(F)F)cc1Cl	108
O=C(O)C1=COCCO1	100
O=C(Nc1ccc(-c2nc3cc(NC(=O)C4CCCCC4)ccc3o2)cc1)C1CCCCC1	100
O=C(NC(C(=O)O)C12CC3CC(CC(C3)C1)C2)c1ccc(F)cc1 (stereo unspecified)	100
O=C(Cc1ccccc1)OCC(=O)c1cccc(C(F)(F)F)c1	104
CCC(=O)Nc1nc(NC(=O)CC)c2ncn(C(=O)CC)c2n1	100
CCOC(=O)c1[nH]c2ccccc2c1NC(=O)CC1CCCCC1	98
CC(=O)Oc1c(Sc2ccccc2)c(C)nn1-c1ccccc1	77*
N#CC(C(=O)c1ccco1)c1ccccn1 (stereo unspecified)	94
Cc1ccc(CNCCN2CCOCC2)o1	102
Cc1cc(C)c(C2C(C#N)=C(N)Oc3n[nH]c(C)c32)cc1COc1ccccc1Cl (stereo unspecified)	100
O=C(Nc1ccc(-c2cn3ccsc3n2)cc1)c1cccs1	99
O=c1oc2ccccc2n1Cc1ccc(C(F)(F)F)cc1	97
CCOc1cc(C=NCCN2Cc3ccccc3C2=O)ccc1O	100
O=C(c1ccccc1)N(Cc1ccc(Cl)cc1)Cc1ccco1	93
CC(=O)NCc1ccc2[nH]c3c(c2c1)CCCC3	97
Cc1cc(NC(=O)COC(=O)Cc2ccsc2)ccc1Br	108
CC1CC(C)CN(C(=O)NCc2noc3ccccc23)C1 (stereo unspecified)	98
N=c1n(Cc2ccccc2)c2ccccc2n1CC(O)c1ccccc1 (stereo unspecified)	100
CCOC(=O)C1CCN(Cc2cccc(OC)c2O)CC1	100
Cc1cc2c(c(=O)o1)C(c1ccc(C(F)(F)F)cc1)C(C(=O)OC(C)C)=C(N)O2 (stereo unspecified)	105
c1ccc(CN2CCC(NCC3CCCO3)CC2)cc1 (stereo unspecified)	104
COc1ccc(S(=O)(=O)NCC2CCC(C(=O)O)CC2)cc1 (stereo unspecified)	86
O=C([C@H](Cc1ccccc1)N1Cc2ccccc2C1=O)N1CCN(c2ccccc2)CC1	101
CCC1SC(=Nc2ccc(C)cc2)NC1=O (stereo unspecified)	100
COC(=O)c1ccccc1NC(=O)C(F)(F)F	103
O=C(Cn1ncc2c(=O)oc3ccccc3c21)NCCCN1CCN(c2ccccc2F)CC1	103
CCCNS(=O)(=O)c1c[nH]c(C(=O)OC)c1	103
Nc1nc(N)n(-c2ccccc2)n1	98
Cn1c(SCc2ccccc2)nnc1-c1c[nH]c2ccccc12	100
FC(F)(F)c1ccc(C=Nn2c(-c3ccccc3)n[nH]c2=S)cc1	98
CCC(CO)Nc1ncnc2nc[nH]c12 (stereo unspecified)	101
c1cc(N2CCOCC2)ccc1NC1=NCCS1	89
COc1ccc(C(=O)N/C(=C\c2cccc3ccccc23)C(=O)N2CCN(C)CC2)cc1	94
CC(=O)N1CC(C)Oc2cc(S(=O)(=O)N(C)Cc3ccccc3)ccc21 (stereo unspecified)	103
NS(=O)(=O)c1ccc(NC(=O)C2CCCNC2=O)cc1 (stereo unspecified)	100
CCOc1ccc(/C=C(\NC(=O)c2ccccc2)C(=O)NC)c2ccccc12	100
CCc1ccc(-c2nc(CSCC(=O)NC3CC3)c(C)o2)cc1	103
O=C(Nc1cc(Cl)cc(Cl)c1)N1CCN(C2c3ccccc3-c3ccccc32)CC1	113
N#Cc1ccc(C=NCCN2CCNC2=O)cc1	100
CC(C)(C)S(=O)(=O)c1cccc(S(=O)(=O)C(C)(C)C)c1	100
Cc1ccc(C)n1-c1ccc(C(=O)OCC(=O)c2ccc(Cl)cc2)cc1	101
CC(=O)Nc1ccc(C(=O)OCC(=O)Nc2ccc(C)cc2)cc1	95
NC(=S)c1ccc(C(F)(F)F)cc1Cl	100
CC(NS(=O)(=O)c1ccc(Cl)cc1)C(c1cccs1)N1CCN(C)CC1 (stereo unspecified)	98
CCOc1ccc(NC(C)=O)cc1	99
Cc1ccc(S(=O)(=O)N2CCCC(C(=O)NCc3ccco3)C2)cc1 (stereo unspecified)	101
CC(C)c1ccc(/C=C2\CSc3ccccc3C2=O)cc1	94
CCC(=O)NC(c1c(C)[nH]n(-c2ccccc2)c1=O)(C(F)(F)F)C(F)(F)F	100
O=C(COc1ccccc1)Nc1nc(-c2cccs2)cs1	100

(list continues)
mol	Vaccinia pol inh
CN(NS(=O)(=O)c1ccc(Cl)cc1)c1cnn(C)c(=O)c1Cl	105
Nc1nc(Br)c2c(F)cccc2c1-c1ccccc1	90
CC(C)(C)n1cc(C(=O)c2ccccc2O)cn1	102
Cc1cccc(NC(=O)CN(C2=NC3CS(=O)(=O)CC3S2)c2ccccc2)c1 (stereo unspecified)	93
CCOc1ccc(NC(=O)c2c(OC)cccc2OC)cc1	98
CCCCS(=O)(=O)Nc1ccc2ncn(C)c(=O)c2c1	98
COC(=O)CN(c1ccccc1)S(=O)(=O)c1ccc(C)cc1	100
COc1ccccc1-c1nn(CNc2ccccc2)c(=S)o1	91
C=CCSC1=C(C#N)C(c2ccccc2C)CC(=O)N1 (stereo unspecified)	100
O=C(NC1CCCC1)c1cc(-c2ccc(Br)cc2)on1	101
N#C/C(=C\c1ccc(C2=CCOc3ccccc32)s1)S(=O)(=O)c1ccccc1	101
O=C1C=C(SCC(=O)c2ccccc2)SC(c2ccc(Cl)cc2)C1 (stereo unspecified)	97
CCN(CC)S(=O)(=O)c1ccc(C(=O)NCCSc2c[nH]c3ccccc23)cc1	106
C=CCNC(=S)Nn1c(C)nnc1-n1nc(C)cc1C	100
CC1(C)CC(=O)c2sc(NC(=O)CCCc3ccccc3)nc2C1	106
Cc1cc2c(cc1C)NC(CC(=O)NCc1ccccc1)C(=O)N2 (stereo unspecified)	102
N#Cc1cccc(C#N)c1Sc1ccc(Cl)cc1	102
CCOC(=O)N1CCN(CC(O)COc2c(OC)cccc2OC)CC1 (stereo unspecified)	100
Cc1cc(-c2ccc(F)cc2)nc2cc(C(=O)Nc3ccccc3C(F)(F)F)nn12	101
CCOC(=O)c1ccccc1NCn1nnc2ccccc21	90
CCOC(=O)c1cncc(C#CCOC(=O)c2ccc(Cl)cn2)c1	101
CC1CN(C(=O)COc2ccccc2C#N)CC(C)O1 (stereo unspecified)	94
CC1(C)NC(=S)N(c2nc3ccccc3s2)N1	82
CC(C)(C)NC(=O)C1Cc2ccccc2CN1S(=O)(=O)c1cccs1 (stereo unspecified)	101
N#Cc1c(-c2ccccc2Cl)cc(C2CC2)nc1N	100
CCCc1ccc(C(=O)CC#N)cc1	95
CC(C)Sc1nnc(NC(=O)c2cc(Br)ccc2Cl)s1	101
CCCCC(=O)N1CC(=O)Nc2ccc(F)cc2C1c1ccccc1 (stereo unspecified)	100
Cc1cc(C)c(NC(=S)NC(=O)c2ccccc2)c(C)c1	100
COC(=O)CC1OC(=O)c2ccccc21 (stereo unspecified)	98
O=C(COC(=O)c1cccs1)NC12CC3CC(CC(C3)C1)C2	104
COc1ccc(CCNC(=O)CSc2cc(Cl)nc3ccc(C)cc23)cc1OC	74
O=C(c1ccc(S(=O)(=O)N2CCOCC2)cc1)N1CCCC1	100
O=C1CC(c2ccccc2)n2nc(N3C(=O)CCC3=O)nc2N1 (stereo unspecified)	100
Cn1cccc1Cc1nnc(SCC(=O)NC2CCCC2)n1C	106
O=C(CC(C(=O)O)n1ccnc1)c1ccc(C2CCCCC2)cc1 (stereo unspecified)	97
O=c1ccc(Cc2ccccc2Br)n[nH]1	100
O=C(CCC(=O)n1ncc2ccc(Cl)cc21)NC1CCCc2ccccc21 (stereo unspecified)	98
O=C(Nc1ncc(C(F)(F)F)cc1Cl)c1cc2c(s1)CCC2	102
c1ccc(C2(Cn3ccc4ccccc43)OCCO2)cc1	100
CC(C)=C1N=C(c2ccccc2)OC1=O	92
CCOc1ccccc1C(=O)NCCc1cn2ccc(C)cc2n1	96
NC(=O)CSc1ncnc2sc3c(c12)CCCC3	106
Nn1c(=S)[nH]nc(Cc2ccco2)c1=O	99
C=CCn1c(C(C)NC(=O)Cc2ccccc2)nc2ccccc21 (stereo unspecified)	100
O=C(CSc1nnc(-c2ccncc2)o1)N1c2ccccc2Sc2ccccc21	99
O=S(=O)(NCC(c1cccnc1)N1CCN(Cc2ccccc2)CC1)c1ccccc1 (stereo unspecified)	100
CCCN(CCC)S(=O)(=O)c1ccc(C(=O)NN)cc1	110
COc1ccc(NCC(O)Cn2c3ccc(Cl)cc3c3cc(Cl)ccc32)c(OC)c1 (stereo unspecified)	100
O=C(Cc1cscn1)c1ccc(O)cc1O	102

The list goes on.
mol	Vaccinia pol inh
O=c1c(=O)n(OCc2ccccc2)c2ccccc2n1O	100
CCOC(=O)c1c(N)c[nH]c1NCc1ccc(Cl)nc1	100
Cc1cc(C)cc(OC2CCCCC2NS(=O)(=O)c2ccc(Cl)cc2)c1 (stereo unspecified)	100
CC(C)OC(=O)CSC1=C(C#N)C(c2ccco2)C2=C(CCCC2=O)N1 (stereo unspecified)	103
CC(NC(=O)c1ccc(Br)o1)c1ccccc1 (stereo unspecified)	98
CCc1nc2ccccc2[nH]1	100
O=C(Cn1c(=O)n2ncnc2c2c3c(sc21)CCCC3)c1ccccc1	108
CCOC(=O)/C(=C(\C)O)C1(C(C#N)C(N)=O)CCCCC1 (stereo unspecified)	101
Cc1ccc(-c2nc3n(n2)C(=O)CC(c2ccco2)S3)cc1 (stereo unspecified)	97
COC(=O)c1cnn(-c2ccccc2)c1N	98
O=C(NCCOc1ccccc1Cc1ccccc1)c1ccc2c(c1)OCO2	85
O=C(O)CCNc1ncnc2sc3c(c12)CCCC3	100

Not all compounds are listed; rates above refer to the full screens.
